Screening data from PubChem.
quorum sensing – Vibrio cholerae quorum sensing activators, luminescence (AID 686977); V. cholerae quorum sensing reporter, luminescence, 6 h; higher luminescence means a stronger effect; most inactives read 0; one-dose luminescence at 50 µM unless noted; EC50 in µM for titrated hits; 9,400 tested, under 10 active;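 active = light above mean plus 3 SD and confirmed in a dose series; inconclusive = above that limit without a clear retest; inactive = below it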;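 also: raw light counts without normalisation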
The depositor's hits bear a star; ? = inconclusive; [ ] = another dose, or the depositor's remark. Not all compounds are listed, so the mix of outcomes need not match the whole.

SMILES	quorum sensing
Cc1cccc(Nc2nnc(SCc3cn4ccsc4n3)s2)c1	0
CCCCCCOC(=O)CCc1c(C)nc(N)[nH]c1=O	0
Cc1cc(NC(=O)C2CC2)ncc1NC(=O)C12CC3CC(CC(C3)C1)C2	0
Cc1nn(-c2ccccc2)c(N2CCCC2)c1/C=N/O	40
CC[N+]1(C)[C@@H]2CC[C@H]1CC(OC(=O)[C@H]1CCC(C(=O)OC3C[C@H]4CC[C@@H](C3)[N+]4(C)CC)(c3ccccc3)c3ccccc31)C2 (stereo partly drawn)	0[10 µg/mL]
CCc1ccc(C(=O)COC(=O)c2ccc(-c3nnc(-c4ccccc4)o3)cc2)cc1	0
NCCc1nnc(SCc2ccccc2F)o1	?
Cc1ccc(C)n1NC(=O)c1ccc(O)cc1	0
COc1ccc(C2C(=O)N(C3CCCCC3)CC(=O)N2Cc2ccco2)cc1 (stereo not drawn)	0
COc1ccccc1C(=O)Nc1ccc(C(=O)N2CCCC2)cc1	0
CCCCC(=O)Nc1cccc(NC(=O)c2ccc(Br)cc2)c1	40
O=C(CCCOc1ccccc1)Nc1cccc(C(=O)O)c1	0
O=C(CSc1nnc(-c2ccccc2F)n1C1CCCCC1)N1CCCC1	0
O=C(Cc1cccs1)Nc1nc2ccccc2s1	40
O=C(Nc1ccc(Cl)cn1)C1CCCN1S(=O)(=O)c1ccc(Cl)cc1 (stereo not drawn)	0
COc1ccc(CCNS(=O)(=O)c2ccc3c(c2)CC(C)N3C(C)=O)cc1OC (stereo not drawn)	40
CCOC(=O)CC1C(=O)NCCN1C(=O)NC1CCCCC1 (stereo not drawn)	0
Cc1ccc(-n2ncc3c(=O)[nH]c(SCC(=O)N4CCCCC4)nc32)cc1	0
CCOC(=O)c1c(C)[nH]c(C(=O)CSc2nnc(C3CC3)n2N)c1C	0
Oc1ccccc1-c1nnc(COc2ccc(Cl)cc2Cl)o1	0
Cc1csc(SCC(=O)NC2CCCCC2)n1	0
CCN(CC)S(=O)(=O)c1ccc(C(=O)OCCNC(=O)c2cccnc2)cc1	0
Cn1cccc1Cc1nnc(SCC(=O)N2CCN(c3ccccc3)CC2)n1-c1ccc(F)cc1	0
CC(=O)c1cccc(NC(=O)N2CCCC2C(=O)NCc2ccc(C)cc2)c1 (stereo not drawn)	0
CCOc1ccc(S(=O)(=O)N2CCN(c3ccc(OC)cc3)CC2)c2cccnc12	40

The final six records of the section before are carried over, then new ones follow.
SMILES	quorum sensing
Oc1ccccc1-c1nnc(COc2ccc(Cl)cc2Cl)o1	0
Cc1csc(SCC(=O)NC2CCCCC2)n1	0
CCN(CC)S(=O)(=O)c1ccc(C(=O)OCCNC(=O)c2cccnc2)cc1	0
Cn1cccc1Cc1nnc(SCC(=O)N2CCN(c3ccccc3)CC2)n1-c1ccc(F)cc1	0
CC(=O)c1cccc(NC(=O)N2CCCC2C(=O)NCc2ccc(C)cc2)c1 (stereo not drawn)	0
CCOc1ccc(S(=O)(=O)N2CCN(c3ccc(OC)cc3)CC2)c2cccnc12	40
O=C(Cn1c(=O)oc2cc(S(=O)(=O)N3CCCCCC3)ccc21)NC1CCCCCCC1	40
CC1CCCCN1S(=O)(=O)c1ccc2c(c1)CCN2C(=O)C1CCC1 (stereo not drawn)	0
O=c1cc(-c2ccc(O)cc2)oc2cc(O)cc(O)c12	0[10 µg/mL]
C[C@H](CCC(=O)O)[C@H]1CC[C@H]2[C@@H]3CC[C@@H]4C[C@H](O)CC[C@]4(C)[C@H]3CC[C@]12C	40[10 µg/mL]
Cc1ccc(C)c(-n2c(Cc3cc(=O)[nH]c(=O)[nH]3)nnc2SC(C)C)c1	40
Cc1cc(Br)cc(C)c1OCCCCN(C)C	40
O=C(c1cc(-c2ccc(O)cc2)on1)N1CCCc2ccccc21	0
Cn1c(=O)oc2cc(S(=O)(=O)NC3CCCc4ccccc43)ccc21 (stereo not drawn)	0
CC(=O)C(=[N+]=[N-])C(=O)NCc1ccccc1	0
Fc1ccc(-c2nnc(SCc3ncc(-c4ccccc4)o3)n2CC2CCCO2)cc1 (stereo not drawn)	0
Cc1cc(-c2ccccc2)n2ncc(C#N)c2n1	40
CCOC(=O)Nc1cc(C(=O)OC)ccc1C	0
Cc1ccc(C(=O)CSc2nnc(-c3cccs3)n2C)o1	240
O=C(Cn1nc(C(=O)O)c2ccccc2c1=O)NCC1CCCO1 (stereo not drawn)	0
O=C(Oc1cccc(NC(=O)c2ccco2)c1)c1ccc(Br)c(S(=O)(=O)N2CCCCC2)c1	0
Cc1ccc(-c2csc(C3C(N)=NC(S)=C(C#N)C34CCCCC4)n2)cc1 (stereo not drawn)	0
Cc1ccc2oc(=O)c3cnn(CC(=O)NCCN4CCOCC4)c3c2c1	0
CCOc1ccc(C2CC(=O)NC(SC)=C2C#N)cc1 (stereo not drawn)	0
O=S(=O)(Cc1cccc(F)c1)c1c[nH]c2ccccc12	40
CCCNC(=O)C1CNc2ccccc2O1 (stereo not drawn)	0
CCCSC1=N/C(=C\C=C\c2ccco2)C(=O)S1	0
COc1cccc(-n2c(Cc3cc(=O)[nH]c(=O)[nH]3)nnc2SCc2cccnc2)c1	0
COCCn1nnnc1C(C(C)C)N(Cc1cccnc1)Cc1cc2cc(OC)ccc2[nH]c1=O (stereo not drawn)	40
CNCCCC1c2ccccc2C=Cc2ccccc21	?
N#CCCN1CCN(S(=O)(=O)c2ccc(S(=O)(=O)N3CCCC3)cc2)CC1	40
Next part.
SMILES	quorum sensing
COc1ccc(N2C(=O)c3ccccc3NC23CCCCC3)cc1	0
COc1ccc(OCC(=O)Nc2ccc(S(=O)(=O)N3CCOCC3)cc2)cc1	0
COc1ccc(-n2c(=O)[nH]cc(C(=O)N3CCCc4ccccc43)c2=O)cc1	40
Cc1cc(-n2c(C)cc(C(=O)CN3C(=O)NC4(CCCCCC4)C3=O)c2C)no1	0
CCC(=O)N1c2ccccc2-c2nnc(SC)nc2OC1c1ccc(OC)c(OC)c1 (stereo not drawn)	40
CCCCNc1nc2ccccc2[nH]1	0
CCOC(=O)C1=C(C)NC(=O)NC1c1ccc(OCC(=O)N2CCCCC2)cc1 (stereo not drawn)	0
CN(C)c1ccc(C2N(C(=O)N3CCOCC3)CCN2S(=O)(=O)c2ccccc2)cc1 (stereo not drawn)	0
Cc1onc(-c2ccccc2)c1C(=O)N1CCN(C(=O)c2ccco2)CC1	40
Cc1ccc(OCCC(=O)OCC(=O)C(C)(C)C)cc1	0
Cc1ccc(-c2nc(C#N)c(N3CCCCC3)o2)cc1	0
CCOC(=O)/C=C1\CC(=O)Nc2nonc2N1	0
COc1ccc(Cc2nc(-c3ccc(NC(=O)c4cccnc4)cc3)no2)cc1	200
O=C(NCCCN1CCN(c2ccccc2F)CC1)C1CCCN(S(=O)(=O)c2cnc[nH]2)C1 (stereo not drawn)	0
CN(C)S(=O)(=O)c1cccc(C(=O)Nc2cc(Cl)cc(Cl)c2)c1	0
COCc1cc(C)nc2sc(C(=O)Nc3nccs3)c(N)c12	?
Cc1[nH]c2ccccc2c1C(=O)CN1CCCC1	0
O=C(COC(=O)Cc1ccc2c(c1)OCCO2)Nc1ccc(S(=O)(=O)N2CCCC2)cc1	40
CN1CCc2c(c3ccccc3n2Cc2ccccc2)C1	0
N#Cc1nc(-c2ccco2)oc1N1CCN(c2ccccc2)CC1	0
COc1ccc(C2CC(C(F)(F)F)n3ncc(C(=O)NCC4CCCO4)c3N2)cc1OC (stereo not drawn)	0
CCCCn1c(CCCNC(=O)CC)nc2ccccc21	0
O=c1c2ccccc2nc(CSc2nnnn2-c2ccccc2)n1-c1ccccc1	40
Cc1ccc(-c2nc(CS(=O)CC(=O)NCc3ccccn3)c(C)o2)cc1 (stereo not drawn)	80
C[C@]12CCC(=O)C=C1C=C[C@@H]1[C@@H]2CC[C@@]2(C)[C@H]1CC[C@@]2(O)CCC(=O)O	0[10 µg/mL]

Random excerpt: two compounds from above
SMILES	quorum sensing
C[C@]12CCC(=O)C=C1C=C[C@@H]1[C@@H]2CC[C@@]2(C)[C@H]1CC[C@@]2(O)CCC(=O)O	0[10 µg/mL]
Cc1onc(-c2ccccc2)c1C(=O)N1CCN(C(=O)c2ccco2)CC1	40

(continued)
SMILES	quorum sensing
COC(=O)C1=C(C)N(C)C(=O)NC1c1ccc(O)c(OC)c1 (stereo not drawn)	?
CCOC(=O)c1c(NC(=O)c2ccccc2C)sc2c1CC(C)(C)OC2	0
Cc1nnc(NC(=O)c2ccc3ccccc3c2)o1	280
CCC(C)N(C(=O)c1csnn1)C(C(=O)NC(C)(C)C)c1ccccc1 (stereo not drawn)	0
O=C(CN1C2=NCCCN2c2ccccc21)c1cccs1	0
C[C@H](N)[C@H](O)c1cccc(O)c1	0[10 µg/mL]
NC(=O)CN1CCN(C(=O)Nc2ccccc2)CC1	40
Cc1c(O)c(=O)n(-c2ccccc2)n1C	240[10 µg/mL]
Cc1ccc(NC(=O)CSc2nnc(CCNC(=O)OC(C)(C)C)o2)c(C)c1	40
CN(C(=O)c1ccco1)c1nc2c(s1)CCCC2	0
O=C1CC(c2ccc(O)cc2)Oc2cc(O)cc(O)c21 (stereo not drawn)	0[10 µg/mL]
CCCCNC(=O)c1sc2nc(C)cc(COC)c2c1-n1cccc1	0
CC(C)CNC(=O)CSc1nnc(-c2ccccn2)n1Cc1ccccc1	40
C=CCc1ccccc1OCC(O)CNC(C)C (stereo not drawn)	?
C#CC(C)(CC)NC(=O)Cn1nnc(-c2ccc(S(C)(=O)=O)cc2)n1 (stereo not drawn)	0
CNc1ccccc1-c1nc2ccccc2n(C)c1=O	0
CC1(C)CC(=O)C2=C(C1)NC(=O)CC2c1ccc(N(CCC#N)CCC#N)cc1 (stereo not drawn)	0
CCCc1cc(=O)oc2cc(C)c(CN3CCCC3)c(O)c12	0
O=S(=O)(Cc1cc(Sc2ccccc2)nc(-c2ccccc2)n1)c1ccccc1	0
O=c1[nH]c(C(F)(F)F)nc2c1nnn2Cc1ccccc1F	0
CC(C)C(=O)NNc1nc2ccccc2s1	40
COCCNC(=O)C(C)N(c1ccc(OC)cc1)S(C)(=O)=O (stereo not drawn)	40
C=CCNc1nc2c(c(=O)[nH]c(=O)n2C)n1Cc1cccc(C)c1	0
CCOC(=O)/C(C#N)=C\c1ccc(N2CCN(C)CC2)cc1	0
Cc1nn(Cc2ccccc2)c(=O)n1N(C)c1ncc(C(F)(F)F)cc1Cl	0
Following part:
SMILES	quorum sensing
CCCCNC(=O)C1CCCN(S(=O)(=O)c2ccc(-n3cnnn3)cc2)C1 (stereo not drawn)	0
c1ccc(Nc2nc(N3CCOCC3)nc(N3CCOCC3)n2)cc1	0
CCSc1nnc(-c2ccc(OC)cc2)o1	40
COc1ccc(CC2C(=O)NC(=O)N(c3ccccc3)C2=O)c(OC)c1 (stereo not drawn)	0
C[C@@H]1CC[C@@]2(NC1)O[C@H]1C[C@H]3[C@@H]4CC=C5C[C@@H](O)CC[C@]5(C)[C@H]4CC[C@]3(C)[C@H]1[C@@H]2C	80[10 µg/mL]
Cc1ccc2c(CC(=O)NCC3COc4ccccc4O3)coc2c1 (stereo not drawn)	0
CCOC(=O)COc1cccc2c(=O)n(CC(=O)NCc3ccc4c(c3)OCO4)ccc12	40
O=C(CSc1nc2c(cnn2-c2ccc(F)cc2)c(=O)[nH]1)N1CCCCC1	0
CSc1nnc2n(Cc3ccccc3)c(=O)c3c4c(sc3n12)COC(C(C)C)C4 (stereo not drawn)	40
CC(C)(C)c1ccc(-c2nc(C#N)c(NCc3ccncc3)o2)cc1	0
CC1CCCC(C)N1CCCNC(=O)Cn1cc2c(n1)CCCC2 (stereo not drawn)	0
COC(=O)C1=CO[C@@H](C)[C@H]2CN3CCc4c([nH]c5ccccc45)[C@@H]3C[C@H]12	0[10 µg/mL]
CCCc1nc(N)c(C#N)c(-c2cccnc2)c1CC	0
Cc1ccc(-c2csc(NC(=O)c3ccc(-c4ccccc4)cc3)n2)o1	0
CCCOc1ccc2ccccc2c1/C=N/n1cnnc1	40
COc1cc(S(=O)(=O)N2CCN(c3ccccc3)CC2)ccc1Cl	0
Cc1cc(NC(=O)Cn2c(=O)n(Cc3ccccc3)c(=O)c3ccccc32)no1	40
COc1ccc(C2(C(=O)NCCCN(C)C)CCOCC2)cc1	0
COc1ccc(-c2c(C)n([O-])c3c([n+]2=O)CCCC3)c(OC)c1	0
CCC(C)C(NC(=O)c1ccccc1NC(=O)c1ccco1)C(=O)O (stereo not drawn)	0
Cn1c(=O)c2c(nc(CN3CCN(C(=O)c4ccco4)CC3)n2Cc2ccccc2F)n(C)c1=O	0
O=C(NCc1ccccc1Cl)c1cnc2n(c1=O)CCS2	?
Cc1cccc(N2CCN(C(=O)Cn3cccc3)CC2)c1C	40
CCCCn1c(=NC(=O)c2cccnc2)c(C#N)cc2c(=O)n3cccc(C)c3nc21	40
CC(C)C(NC(=O)CN1C(=O)c2ccccc2S1(=O)=O)C(C)C	0

Ordered by molecular weight (highest first): part of the list above
SMILES	quorum sensing
CCOC(=O)c1c(NC(=O)c2ccccc2C)sc2c1CC(C)(C)OC2	0
CCCOc1ccc2ccccc2c1/C=N/n1cnnc1	40
CCOC(=O)Nc1cc(C(=O)OC)ccc1C	0

The list continues.
SMILES	quorum sensing
CNCCC=C1c2ccccc2C=Cc2ccccc21	0[10 µg/mL]
NC(=O)CSc1ncnc2c1oc1ccccc12	0
Cc1ccnc(Sc2ncccc2[N+](=O)[O-])n1	0
COCCn1c(SCC(=O)N2CCCC2)nnc1-c1ccoc1C	0
CCOC(=O)N1CCN(S(=O)(=O)c2cccc3nsnc23)CC1	0
CCCCC(CC)Cn1c2nc3ccccc3nc2c2c(=N)oc(C)nc21 (stereo not drawn)	0
Clc1ccccc1C(c1ccccc1)(c1ccccc1)n1ccnc1	0[10 µg/mL]
CCOc1ccc(NC2CCN(C(C)=O)CC2)cc1	0
O=P(O)(CP(=O)(c1ccccc1)c1ccccc1)c1ccccc1O	0
CCOC(=O)C1CCCN(c2c(NCCN3CCCCC3CC)c(=O)c2=O)C1 (stereo not drawn)	40
